# AID504770: growth inhibitors of E. coli YBA685 in a screen for V. cholerae RctB (chromosome II replication) inhibitors. E. coli YBA685 rctB-dependent plasmid, OD600 growth, 3 h; hits give low values. z-score (test concentration not listed). AID 504770. actives 0.27% (n = 130,000);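 active means z-score under -2 on both plates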;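 further: wells of about 30 µL received 100 nL stock; score is relative to mean and SD of the test wells; the first replicate is given; strong numbers were not always called active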
# Ba CapD inh: CapD enzyme inhibition | actives 0.23% (n = 140,000) | z-score (no concentration beside the values) | purified CapD enzyme, fluorescence intensity read-out; hits give low values; some hits fall short of the stated cut;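 active means z-score under -4 in either of two replicates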;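 further: stock transfer was 100 nL into about 40 µL; score is relative to mean and spread of the plate; one replicate is shown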
# Active calls of the source: *; / = not tested or not shown. Some of the compounds tested; count on the stated rates, not on these rows.
SMILES,AID504770,Ba CapD inh
Cc1ccc(O)c2c1NCCC2,-0.65,-0.14
O=C(Nc1ccccc1C(=O)N1CCOCC1)C1COc2ccccc2O1 (stereo not drawn),-0.8,/
CCN(CC)c1ccc(NC(=O)c2cc(=O)c3ccccc3o2)cc1,-0.65,-0.49
COC(=O)COc1ccc2c(=O)c(-c3csc(C)n3)coc2c1,0.15,0.16
Cc1occc1C(=O)N/N=C/c1ccc(C(=O)O)cc1,2.2,-0.46
C=CCNC(=O)/C=C/c1ccc(Cl)c(Cl)c1,-0.55,-0.03
CN(C1CCN(Cc2c(Cl)cccc2Cl)C1)S(=O)(=O)c1ccccc1OC(F)(F)F (stereo not drawn),/,0.61
CCC(CC)C(=O)N1CCc2ccccc21,-1,-0.18
CC(C)N1CC=C2C(C1)C(c1ccccc1)C(C#N)=C(N)C2(C#N)C#N (stereo not drawn),-1.1,32
CCN(CC)C(=O)Cn1cnc2sc(C(=O)N3CCN(c4ccc([N+](=O)[O-])cc4)CC3)c(C)c2c1=O,/,-0.52
Cc1cc(C)n(-c2nc3nonc3nc2Nc2ccccc2C)n1,/,-0.33
Cc1nc(N2CCCC2)sc1C(=O)c1oc2ccccc2c1C,0.15,/
CC(C)NC(=O)C[n+]1csc2ccccc21,-0.45,0.23
CCO[C@@H]1O[C@H](COC(C)=O)[C@@H](OC(C)=O)[C@H](OC(C)=O)[C@H]1OC(C)=O,/,0.34
CCOC(=O)C(O)(c1ccc2nc(N)sc2c1)C(F)(F)F (stereo not drawn),1.6,-0.16
Clc1ccc(C2=Nc3cccc4cccc(c34)N2)cc1,2.6,0.93
COc1ccc(C2CC(c3ccc(Br)cc3)=NN2S(=O)(=O)c2ccccc2)cc1 (stereo not drawn),/,0.24
O=c1[nH]c(O)c(C=NCc2cccs2)c(=O)[nH]1,-0.65,0.21
COc1cccc(C(=O)N2CCCC(C)C2)c1 (stereo not drawn),-0.6,/
Cc1ccc(-n2ncc3c(NCc4ccco4)ncnc32)cc1,-0.05,1.5
OCC1CC(O)C(O)C(Oc2ccc3ccccc3c2)O1 (stereo not drawn),-0.25,0.63
COc1cc(/C=C2\SC(=N)N(c3ccc4c(c3)OCO4)C2=O)cc(OC)c1O,/,-0.89
Cc1ccc(C(=O)N(C)c2ccccc2)cc1Cl,0.35,-0.21
CCOc1ccc(NC(=O)COC(=O)Cn2cnnn2)cc1OCC,0.05,/
Cc1cc(S(=O)(=O)Nc2ccccc2C(=O)NCC2CC2)c(Cl)cc1Cl,/,-0.66
SMILES,AID504770,Ba CapD inh
CN(C)NS(=O)(=O)C1CCS(=O)(=O)C1 (stereo not drawn),0,0.38
CC(=O)N[C@H]1[C@@H](OCc2ccccc2)O[C@@H]2COC(c3ccccc3)O[C@H]2[C@@H]1O[C@H](C)C(=O)O (stereo partly drawn),/,0.24
O=C(O)c1cccc(N2C(=O)C3C4C=CC(C4=C(c4ccccc4)c4ccccc4)C3C2=O)c1 (stereo not drawn),/,-0.085
COC(=O)c1cc(/C=C2\C(=O)Nc3ccccc32)cn1C,-0.2,-2.7
O=c1c(Cc2ccc(Cl)cc2Cl)c(O)ccn1Cc1ccc(Cl)cc1,/,-0.96
O=C1CC(n2nc(-c3ccco3)n(-c3ccccc3)c2=S)C2COC1O2 (stereo not drawn),/,2.4
CCc1nn(CC(=O)N2CCN(c3cc(Cl)ccc3C)CC2)c(=O)c2cc3occc3n12,1.9,-0.28
NC(=O)N/N=C1\CCCc2ccccc21,0.15,/
O=C(O)c1ccc(N2CCCc3ccccc32)s1,-0.6,11
COC(=O)C1=NNC2C(=O)N(c3ccccc3C)C(=O)C12 (stereo not drawn),/,-0.15
COc1cccc(N2C(=O)NC(=O)/C(=C\c3ccc(OC)c(OC)c3OC)C2=O)c1,/,-0.59
COc1cc(OC)cc(C(=O)Nc2cc(C(=O)Nc3cccc(C)n3)ccc2N2CC3CC(C2)c2cccc(=O)n2C3)c1 (stereo not drawn),/,0.41
COc1ccccc1/C(N)=N/O,-0.85,/
Cc1ccccc1Nc1nc(N)nc(COc2ccc(F)c(Cl)c2)n1,1.2,/
CCCCCCOc1ccc(/C=C2\c3cc([N+](=O)[O-])ccc3-c3c2cc([N+](=O)[O-])cc3[N+](=O)[O-])cc1,/,-0.15
COC(=O)N(c1ccccc1)P1(=S)OCCO1,1.1,-0.035
O=C(NCCN1CCN(S(=O)(=O)c2ccc3ccccc3c2)CC1)C(=O)Nc1ccc(Cl)cc1,/,2.4
FC(F)Oc1ccccc1C=NCc1cn2ccccc2n1,-0.6,/
Cc1nn(C)c(Sc2ccc(Cl)cc2)c1C(=O)Nc1ccc(F)cc1,/,-0.075
CCOC(=O)c1cc(-c2ccccc2)n(-c2ccccc2C)n1,0.35,-0.57
CCOC(=O)c1sc(N)c(C#N)c1COC(=O)CSc1nnc(-c2ccco2)o1,-0.6,/
N#CCn1c(COC(=O)Cc2ccc3c(c2)OCCO3)nc2ccccc2c1=O,0.95,/
N#CC1=C(N)C(C#N)(C#N)C2(C(=O)N(Cc3ccccc3)c3ccccc32)C2CCCC=C12 (stereo not drawn),-0.15,0.055
O=S(=O)(NC1CC2CCC1C2)c1cccc(Br)c1 (stereo not drawn),/,-0.065
CC(O)c1cc(-c2ccc(Cl)cc2Cl)no1 (stereo not drawn),-0.9,11
SMILES,AID504770,Ba CapD inh
Clc1cccc(Nc2nc3nonc3nc2N2CCCCC2)c1,/,-0.79
O=C(c1cc(-c2cccs2)on1)N1CCCc2ccccc21,-0.5,-0.64
CCOc1ccc(-n2c(SCc3ccccc3)nnc2-c2cccnc2)cc1,0.3,-0.04
CSc1nnc(SC)n1CCNC(=O)Nc1cccc(Cl)c1,0.15,1.1
CCOC(=O)C1CCN(C(=O)COC(=O)/C=C/c2ccccc2)CC1,-0.3,/
Cc1ccc(NS(=O)(=O)c2ccc3c(c2)oc(=O)n3C(=O)Oc2ccccc2)cc1,-0.95,-0.04
Cc1nc2ccc(NS(=O)(=O)c3ccccc3Cl)cc2o1,-0.2,-0.74
COc1cc(COC(=O)N2CCC(O)(c3cccc(C(F)(F)F)c3)CC2)c([N+](=O)[O-])cc1OC,/,-0.6
Cc1noc(C)c1COC(=O)/C=C/c1cn(Cc2ccccc2)nc1-c1cccs1,0.05,/
Cc1ccc(CNS(=O)(=O)c2c(C(=O)N3CCCC3)c(C)n(C)c2C)cc1,0.05,0.09
CCOc1ccc(S(=O)(=O)N2CCC(C(=O)N/N=C/c3ccc(-c4ccc(F)cc4)o3)CC2)cc1,0.15,/
COc1ccccc1N1C(=O)NC(=O)/C(=C\C=C\c2ccco2)C1=O,-0.6,0.085
Cc1cc(Sc2nnc3c(n2)[nH]c2ccccc23)n2c(nc3ccccc32)c1C#N,-0.85,/
COc1ccc(CNC(=S)N2CCCC(C(F)(F)F)C2)cc1 (stereo not drawn),0.35,/
CC(C)(C)OC(=O)N1CCC(c2nc3c(nnn3Cc3ccccc3Cl)c(=O)[nH]2)CC1,0.35,1
CN1C=C(C(N)=O)C=CC1=C1C(=O)c2ccccc2C1=O,-0.4,/
COc1ccc(C(=O)c2oc3ccc4c(C)cc(=O)oc4c3c2-c2ccccc2)cc1,/,-0.15
CCOC(=O)c1nc(NC(C)C)c2ccccc2n1,1.4,0.15
COc1ccc(Nc2ncnc3c2nnn3Cc2ccccc2Cl)c(OC)c1,0.05,55
CCC(Nc1ccc(Br)cc1)C(=O)N/N=C/c1cccnc1 (stereo not drawn),-0.45,0.18
Cc1cccc(CSc2ncn[nH]2)c1,0.2,0.06
C=CCn1c(COc2ccccc2F)nnc1SC1CCOC1=O (stereo not drawn),1.9,/
CC(NC(=O)C1COc2ccccc2O1)C(=O)O (stereo not drawn),1.7,/
O=C1c2ccccc2C(=O)N1CCC(=O)N1CCCc2ccccc21,/,-0.54
CCCOC(=O)c1sc2nc3c(c(-c4cccs4)c2c1N)CCC3,0.6,-0.01
SMILES,AID504770,Ba CapD inh
Cc1ccc(CCOC(=O)NNC(=O)c2cccs2)cc1,/,-0.11
CCOc1ccccc1NC(=O)C1CCN(C(=O)c2ccccc2)CC1,-0.8,-0.11
O=C(c1ccc(Cl)cc1)N(c1ccccn1)c1ccccn1,0.4,/
S=C(NCc1ccco1)N1CCC2(CC1)OCCO2,1.6,-0.32
CCOC(=O)C1=C(C)N=c2s/c(=C\c3ccc(OC(C)=O)c(OC)c3)c(=O)n2C1c1ccc(OC)c(OC)c1 (stereo not drawn),/,-0.17
COc1cc(C2C(C#N)=C(N)OC3=C2C(=O)CC(c2ccco2)C3)cc(OC)c1OC (stereo not drawn),/,-0.27
Cc1ccccc1OCC(=O)N(Cc1ccco1)Cc1ccco1,-0.45,-0.14
N#Cc1ccc(CNC(=O)Nc2ccccc2)cc1,-0.5,0.51
NS(=O)(=O)c1ccc2c(c1)C1C=CCC1C(c1ccc(Br)cc1)N2 (stereo not drawn),/,0.085
COC(=O)c1cc(Cl)nc2ccccc12,0.05,16
Cc1ccc(NC(=O)CSCc2c(C)noc2C)cc1C,-0.85,/
CCNc1cc(Nc2ccc(C)c(Cl)c2)c([N+](=O)[O-])c2nonc12,/,0.13
O=C(Nc1ccc(NC(=O)c2ccco2)cc1)c1ccc2c(c1)OCCO2,/,0.6
CCSc1nc(O)c(C(C)CC)c(=O)[nH]1 (stereo not drawn),-0.3,-1.2
Cn1nnnc1SCC(=O)OC1CCCCC1,0.2,/
Cc1nn(Cc2nnc(-c3ccccc3Cl)o2)c(C)c1Br,0.45,0
COC(=O)c1cccc(NC2=CC(C)(C)CC(=O)C2)c1,0.2,-1.1
O=C(COc1ccc2oc3c(c2c1)CCCC3)Nc1cccnc1,-0.2,0.47
Cc1c(S(=O)(=O)c2ccc(Cl)cc2)csc1C(=O)N(C)c1nnc(C(F)(F)F)s1,0.6,0.58
O=C1c2ccccc2C(=O)N1Cc1ccc2[nH]c3c(c2c1)CCCC3,0.05,68
COc1ccc(C2NC(=O)NC3=C2C(=O)CC(C)(C)C3)cc1OC (stereo not drawn),0,/
CCOc1ccc(NC(=O)CN2C(=O)C(CC)SC(CC)C2=O)cc1 (stereo not drawn),0.6,/
Clc1ccc(C2=CC(c3ccc(Br)cc3)n3ncnc3N2)s1 (stereo not drawn),/,11
CN(C)C=NC(=S)c1ccc(Cl)cc1,/,-0.2
Cc1cc2nn(CN3CCOCC3)c(=S)n2c2ccccc12,-0.6,/
SMILES,AID504770,Ba CapD inh
N#CC1(O)CN2CCC1CC2 (stereo not drawn),/,0.01
N#Cc1ccc(-c2cccs2)nc1SCC(=O)c1cc2ccccc2oc1=O,/,1.4
CCOC(=O)/C(C#N)=C1\CC2CCC1(C)C2(C)C (stereo not drawn),0.35,/
COc1ccc2c(Sc3ccccc3)c(C(=O)N3CCc4ccccc43)[nH]c2c1,0.1,0.2
Cc1ncc2c(n1)-c1cc(F)ccc1SC2,-1.2,0.46
Cc1cc(C(=O)CSc2nnc(NCc3ccccc3)s2)c(C)n1C,0.75,/
CSc1nnc(C2CCCN2Cc2cccnc2)n1C (stereo not drawn),-2.1,/
O=C(CCn1nc(-c2ccc(Cl)cc2)c2ccccc2c1=O)NCC1CCCO1 (stereo not drawn),2.2,-0.41
CCOc1ccc(N=Cc2c(C(=O)O)[nH]c3ccccc23)cc1,-0.4,0.23
Cc1nnc2ccc(N3CCC(c4ccccc4)C3)nn12 (stereo not drawn),-0.9,-0.12
COc1ccc(NC(=S)Nc2ccc(C)c(NS(C)(=O)=O)c2)cc1,/,-0.23
NS(=O)(=O)c1ccc(N=Cc2c(O)n(Cc3ccc4c(c3)OCO4)c(=O)c3ccccc23)cc1,2,/
O=S(=O)(c1cccc(-c2nnc3n2CCCCC3)c1)N1CCCCC1,0.1,/
O=c1ccc(-c2ccco2)n[nH]1,-0.55,7.2
O=c1ccc2ccc(OCCOc3ccc4ccc(=O)oc4c3)cc2o1,-0.1,0.6
Cc1c(CCl)cc(C(=O)O)cc1CCl,0.7,-0.6
COc1cc2c(cc1OC)CN(C(=S)Nc1ccccc1)CC2,-0.25,-1.2
CC(C)(C)OC(=O)NCCCCCNC(=O)c1ccc(-n2nc(-c3ccccc3)cc2-c2ccccc2)cc1,/,2.8
CCSc1nnc(NC(=O)CCc2ccc(C)o2)s1,-0.8,/
CC(OC(=O)Cc1ccc(F)cc1)C(=O)Nc1ccc2c(c1)OCCO2 (stereo not drawn),-0.45,/
CC(=O)NNc1nc(-c2ccccc2)cs1,-1.9,/

# Sorted by count of non-hydrogen atoms (rising): part of the list above
SMILES,AID504770,Ba CapD inh
N#CC1(O)CN2CCC1CC2 (stereo not drawn),/,0.01
O=c1ccc(-c2ccco2)n[nH]1,-0.55,7.2
Cc1c(CCl)cc(C(=O)O)cc1CCl,0.7,-0.6
CC(=O)NNc1nc(-c2ccccc2)cs1,-1.9,/
CCOC(=O)/C(C#N)=C1\CC2CCC1(C)C2(C)C (stereo not drawn),0.35,/
CCSc1nnc(NC(=O)CCc2ccc(C)o2)s1,-0.8,/
CSc1nnc(C2CCCN2Cc2cccnc2)n1C (stereo not drawn),-2.1,/
Cc1nnc2ccc(N3CCC(c4ccccc4)C3)nn12 (stereo not drawn),-0.9,-0.12
CCOc1ccc(N=Cc2c(C(=O)O)[nH]c3ccccc23)cc1,-0.4,0.23
COc1ccc(NC(=S)Nc2ccc(C)c(NS(C)(=O)=O)c2)cc1,/,-0.23
O=S(=O)(c1cccc(-c2nnc3n2CCCCC3)c1)N1CCCCC1,0.1,/
O=c1ccc2ccc(OCCOc3ccc4ccc(=O)oc4c3)cc2o1,-0.1,0.6
N#Cc1ccc(-c2cccs2)nc1SCC(=O)c1cc2ccccc2oc1=O,/,1.4
COc1ccc2c(Sc3ccccc3)c(C(=O)N3CCc4ccccc43)[nH]c2c1,0.1,0.2
NS(=O)(=O)c1ccc(N=Cc2c(O)n(Cc3ccc4c(c3)OCO4)c(=O)c3ccccc23)cc1,2,/
CC(C)(C)OC(=O)NCCCCCNC(=O)c1ccc(-n2nc(-c3ccccc3)cc2-c2ccccc2)cc1,/,2.8
